MT1-MMP act inh – MT1-MMP (human) activation inhibition. AID 651647. GFP/RFP ratio change, % at 20 µM. 360,000 tested, 0.061% active. HT1080 RFP-PRO-GFP cells, GFP/RFP ratio fluorescence, overnight; percent of plate control window, DMSO zero. P50281;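 active = GFP/RFP ratio change of at least 30% with cell ATP level not reduced by more than half and red fluorescence within 50% of control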; note: strong numbers were not always called active
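Assay system: HT1080 RFP-PRO-GFP cells | Dosing: 20 µM single dose, 1% DMSO | Incubation: Cells overnight before dosing, compound overnight, 37 °C, 5% CO2 | Evaluation: GFP/RFP fluorescence ratio | Control set: DMSO-only wells and HT1080 RFP-L50D-GFP cell wells as references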
PABP polyA inh – blocks human PABP binding to poly(A) RNA. P11940. fluorescence polarization. inhibition, % at 35 µM. 290,000 tested, 1% active. AID 2014;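 active = 50% or more with normal probe brightness, or confirmed in later tests; about a fifth of its hits are not listed in these tables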;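 note: calls also rest on retests at 20 µM and on dose response follow-up; controls were probe without protein and protein plus probe with vehicle; some compounds called inactive have numbers as strong as hits; many hits fall short of the cut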
CSC inhib – cancer stem cell inhibition | AID 2717 | cancer stem cell-like cells viability, luminescence | 300,000 tested, 1.1% active | inhibition, % at 7.5 µM;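 active = mean at 75% or more and at least half the replicates too; tested in HMLE shEcad cells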;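 note: 0% = median of negative and 100% = median of positive control wells; the first replicate is given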
UUG fidelity – alters start codon recognition fidelity in yeast. S. cerevisiae UUG-firefly luciferase reporter, luminescence/redox ratio. activity score, % at 18.7 µM. 350,000 tested, 0.13% active;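 active = replicate mean at a twofold rise or more, about +100% in these data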;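 note: firefly luciferase made from a UUG start codon reports start codon fidelity; reporter light over untreated wells divided by growth signal over untreated wells; some hits fall short of that in this replicate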
eIF4H FP inh – inhibitors of RNA binding by human eIF4H; Q15056; eIF4H fluorescence polarization binding assay; inhibition, % at 35 µM; 290,000 tested, 0.94% active;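 active = 50% or more with normal probe brightness, or confirmed in later tests; about a fifth of its hits are not listed in these tables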;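 note: calls also rest on retests at 20 µM and on dose response follow-up; 0% = protein and probe with vehicle and 100% = probe without protein; strong numbers were not always called active; many hits fall short of the cut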
Rce1 inhib – inhibitors of yeast Ras-converting enzyme; AID 2563; yeast membranes, quenched prenylated peptide cleavage fluorescence; 290,000 tested, 0.27% active; calls only; Q03530;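 active = fall in fluorescence gain of 50% or more versus controls, with final raw signal at or below 3038400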;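 note: plate controls were neutral control wells for no effect and wells lacking membranes for full effect; tested at 10 µM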
Target sequence (Q03530 whole entry, looked up): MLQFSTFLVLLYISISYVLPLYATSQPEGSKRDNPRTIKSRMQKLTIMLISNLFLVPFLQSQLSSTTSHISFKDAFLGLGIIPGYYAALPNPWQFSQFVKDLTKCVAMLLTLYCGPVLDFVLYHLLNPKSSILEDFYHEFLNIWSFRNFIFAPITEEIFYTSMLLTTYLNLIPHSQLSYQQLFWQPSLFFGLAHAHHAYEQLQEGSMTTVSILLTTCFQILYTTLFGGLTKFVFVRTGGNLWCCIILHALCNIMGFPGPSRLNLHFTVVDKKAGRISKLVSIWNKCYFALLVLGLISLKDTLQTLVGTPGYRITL
Env fusion inh – HIV envelope-mediated fusion inhibition | AID 651610 | HeLa-JRFL Env/CEM21 cell fusion, luciferase | 360,000 tested, 1.1% active | inhibition, % at 12.3 µM;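 active = mean replicate inhibition score of at least 50 and every replicate individually at or above 50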;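 note: 0% = plate neutral controls and 100% = maraviroc near 300 nM; one replicate is shown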
eIF4H FP inh retest – also measured in eIF4H FP inh; calls as there; inhibition, %; compound at 20 µM; confirmation average;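 mean of two retest wells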
PABP polyA inh retest – further read-out of PABP polyA inh, marked with its call; inhibition, %; compound at 20 µM; confirmation repeats;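 mean of two retest wells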
MT1-MMP act inh RFP – also measured in MT1-MMP act inh; calls as there; RFP signal change, %; measured here: RFP expression control read;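 0 = vehicle wells; hits needed this value within 50% of zero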
* = called active by the depositor; i = inactive; . = not tested or not shown.

SMILES	MT1-MMP act inh	MT1-MMP act inh RFP	PABP polyA inh	CSC inhib	UUG fidelity	eIF4H FP inh	Rce1 inhib	Env fusion inh	others
CCOC(=O)c1sc(NC(NC(=O)c2ccco2)(C(=O)OC)C(F)(F)F)nc1C (stereo unspecified)	0	2	4	-8	2	-4	i	.
COc1ccccc1N1CCN(S(=O)(=O)c2ccc(Cl)s2)CC1	-4	-7	-4	6	-9	-6	i	.
OC1(c2cccnc2)CCN(Cc2nnnn2Cc2ccccc2)CC1	0	1	25	-15	.	-3	i	-10
COc1ccc(OC)c(NC(=O)NNC(=O)COc2ccc([N+](=O)[O-])cc2)c1	-2	0	-10	1	-11	-2	i	11
O=C(Cn1nnc(-c2ccccc2)n1)N1CCN(c2ccc(F)cc2)CC1	-3	-4	-4	-14	.	-4	i	7
O=c1nc(/C=C/c2ccc(-c3ccc(F)cc3)o2)cc(C(F)(F)F)[nH]1	.	.	121*	33	.	127	i	.	eIF4H FP inh retest=11;PABP polyA inh retest=66*
Cc1cc2oc(C(=O)N(Cc3ccccc3)C3CCS(=O)(=O)C3)c(C)c2cc1C (stereo unspecified)	-10	-6	-10	25	-4	-6	i	9
O=C(CSc1ncc(-c2ccc(F)cc2)[nH]1)Nc1cccc(O)c1	5	-4	-6	3	-16	-5	i	.
O=C(Cc1cccs1)Nc1nnc(CCc2ccccc2)s1	3	3	1	1	-13	6	i	-15
CN(C)c1nc2c(c(=O)[nH]c(=O)n2C)n1CCOc1ccccc1	1	4	-4	-11	-3	-4	i	-69
Cc1ccc(N2C(=O)c3cccc(Oc4ccc(Cl)cc4)c3C2=O)c(C)c1	0	-3	-1	9	.	2	i	7
COc1cc2c(cc1OC)CN(C(=O)c1cc(S(=O)(=O)N3CCCCC3)ccc1Cl)CC2	2	-7	-11	-6	7	-14	i	-13
O=[N+]([O-])c1c(C(Cl)Cl)nn(-c2ccccc2)c1N1CCOCC1	-2	-4	-1	4	2	-8	i	9
N#Cc1c(-c2cccc(Br)c2)cc(-c2cccnc2)nc1N	-1	-7	0	18	-16	-5	i	.
CC(C)CC(=O)NC(C)C(c1cccs1)N1CCOCC1 (stereo unspecified)	-1	-2	-2	-8	-8	1	i	24
N#Cc1c(/N=C/c2ccco2)sc2c1CCC2	-5	5	31	-4	-12	12	i	.
CC(=O)Nc1cccc(NC(=S)Nc2ccc(F)c(Cl)c2)c1	-4	-3	8	-5	.	17	i	16
N#Cc1ccc(CN2CCN(CC(=O)NCCc3ccc(Cl)cc3Cl)CC2)cc1	-6	-5	-6	8	-13	0	i	22
COc1ccc(S(=O)(=O)N2CCOC23CCN(S(=O)(=O)c2ccc([N+](=O)[O-])cc2)CC3)cc1	-4	-12	.	3	-3	.	i	-18
O=C(C[n+]1cc(-c2ccc(Cl)cc2)n2c1CCCCC2)c1ccccc1	4	-5	-9	4	.	-10	i	-17
O=C(Cc1coc2cc3c(cc12)CCC3)NC1CCCCCCC1	-6	-6	30	5	-1	0	i	10
CCSc1nnc(NC(=O)c2ccccc2)s1	4	-6	1	-2	.	-5	i	-31
CCN1C(=O)c2ccccc2Sc2ccc(C(=O)NCCCN(CC(C)C)CC(C)C)cc21	-8	1	-4	1	12	4	i	13
COc1cc(SC)ccc1C(=O)N1CCc2ccccc21	4	0	6	-2	3	10	i	-11
Cc1nnc(SCC(=O)Nc2nccs2)n1N	2	0	.	-4	-20	.	i	-12

Next part (seven carried over from the part before).
SMILES	MT1-MMP act inh	MT1-MMP act inh RFP	PABP polyA inh	CSC inhib	UUG fidelity	eIF4H FP inh	Rce1 inhib	Env fusion inh	others
COc1ccc(S(=O)(=O)N2CCOC23CCN(S(=O)(=O)c2ccc([N+](=O)[O-])cc2)CC3)cc1	-4	-12	.	3	-3	.	i	-18
O=C(C[n+]1cc(-c2ccc(Cl)cc2)n2c1CCCCC2)c1ccccc1	4	-5	-9	4	.	-10	i	-17
O=C(Cc1coc2cc3c(cc12)CCC3)NC1CCCCCCC1	-6	-6	30	5	-1	0	i	10
CCSc1nnc(NC(=O)c2ccccc2)s1	4	-6	1	-2	.	-5	i	-31
CCN1C(=O)c2ccccc2Sc2ccc(C(=O)NCCCN(CC(C)C)CC(C)C)cc21	-8	1	-4	1	12	4	i	13
COc1cc(SC)ccc1C(=O)N1CCc2ccccc21	4	0	6	-2	3	10	i	-11
Cc1nnc(SCC(=O)Nc2nccs2)n1N	2	0	.	-4	-20	.	i	-12
CC(NC(=O)CN1CCOCC1)c1ccccc1 (stereo unspecified)	4	1	-2	-13	-15	-4	i	-15
Cc1ccc(OS(=O)(=O)c2cn(C)c(=O)n(C)c2=O)cc1C	0	11	2	9	.	-7	i	15
O=C(Oc1ccc(Cl)c2cccnc12)c1ccco1	-1	-6	-6	2	-23	-8	i	.
CCC(C)C(NC(=O)C1CCC(C)CC1)C(=O)NCc1ccco1 (stereo unspecified)	-3	-2	11	19	-9	-1	i	-4
CCCCOC(=O)c1ccc(S(N)(=O)=O)o1	4	5	7	-10	.	-1	i	-19
Cc1cc(C(F)(F)F)nn1CC(=O)Nc1cccnc1	7	2	-1	-10	-7	3	i	.
Cc1ccc(SCc2[nH]nc3c2C2(C(=O)Nc4ccc(F)cc42)C(C#N)=C(N)O3)cc1 (stereo unspecified)	-5	-9	-1	-8	-17	-10	.	-81
CCOc1ccccc1CN1CCNC(=O)C1CC(=O)NC1CCCCCCC1 (stereo unspecified)	3	-1	21	-9	-9	-1	i	16
O=C(c1ccc(Cn2c(=S)[nH]c3ccccc3c2=O)cc1)N1CCN(c2ccccn2)CC1	-7	-22	-9	1	1	15	i	6
CC(C(=O)NC1CCCc2ccccc21)N1C(=O)C2CCCCC2C1=O (stereo unspecified)	2	8	.	-3	-8	.	.	.
COc1ccc([N+](=O)[O-])cc1NC(=O)Cc1c(Cl)cccc1Cl	5	-2	8	7	.	3	i	15
CC(C)OCCCNC(=O)Cn1nc(-c2ccccc2)ccc1=O	2	2	6	-11	.	5	i	.
COc1ccc(N=CC2CCCCC2=O)c([N+](=O)[O-])c1 (stereo unspecified)	13	1	.	.	-1	.	.	-119
COc1ccc(Br)c(Cn2c(C)c(C(=O)NCc3cccs3)sc2=O)c1	2	-4	.	.	-2	.	.	1
CCOc1ccc(NC(=O)C(Cc2ccccc2)NC(=O)C2CCCCC2)cc1 (stereo unspecified)	26	-3	-5	-6	-9	4	i	-13
COC(=O)c1ccc(-c2sc3nc(N4CCOCC4)c4c(c3c2N)CCCC4)o1	.	.	6	28	.	3	i	.
COc1ccc2oc(=N)c(C(=O)Nc3ccc(Cl)cc3)cc2c1	-5	0	-14	-24	-14	-2	i	-8
O=C(CSc1ccc(-c2ccncc2)nn1)N1CCN(c2ccccc2)CC1	-1	-4	-5	-13	-9	-4	i	12
O=C1Nc2ccc(Cl)cc2C12OCCCO2	-4	-1	-4	.	-6	1	i	-17
CCOc1cc(N2CCOCC2)c(OCC)cc1NC1=NCCCCC1	6	6	3	-22	-2	9	i	.
Cc1c(C(=O)OCc2ccccc2)nnn1-c1nonc1N	0	3	-2	-15	.	-7	i	.
CCCCc1ccc(S(=O)(=O)NC(=O)C2(C)CCN2C(=O)c2c(C)noc2C)cc1 (stereo unspecified)	2	4	.	.	-9	.	.	6
CN(C)S(=O)(=O)c1ccc(Cl)c(NC(=O)COC(=O)CNC(=O)c2ccco2)c1	6	5	10	.	-15	0	i	5
Cc1cc(C)n(S(=O)(=O)c2ccc(F)cc2)n1	1	-1	4	-12	3	-10	i	-8
Cc1ccc(NC(=O)CCNC(=O)c2ccc(Cl)cc2)cc1C	1	1	-2	-7	14	-2	i	5
More entries.
SMILES	MT1-MMP act inh	MT1-MMP act inh RFP	PABP polyA inh	CSC inhib	UUG fidelity	eIF4H FP inh	Rce1 inhib	Env fusion inh	others
CCO/C=N/c1c(C#N)c(CC#N)nn1-c1ccccc1	-5	-1	32	-13	-5	10	i	11
O=c1[nH]c(=O)n(C2CCCCCC2)c(O)c1C=NCc1ccc(F)cc1	-11	-14	-6	2	-11	5	i	44
CC1=C(C(=O)Nc2ccccc2)C(c2cccs2)NC(=O)N1 (stereo unspecified)	-1	0	-1	-15	-8	-10	i	8
CCCCC(=O)Nc1cc(NC(=O)CC)ccc1Cl	-2	0	-8	-1	-4	6	i	0
COc1ccccc1CNC(=O)CCCc1ccccc1	-6	-5	-5	-13	.	-8	i	18
O=C(CNC(=O)c1ccc2ccccc2c1)NCc1ccccc1F	1	1	1	-3	-2	0	i	-4
Cc1ccc(/C=C/C(=O)Nc2ccncc2)o1	-6	-4	7	9	-5	23	i	18
Clc1cccc(Cl)c1CSc1nnc(/C=C/c2ccccc2)o1	3	-2	9	19	3	-1	i	.
COCCCn1c(SCC(=O)Nc2ccc(C(C)=O)cc2)nc2ccccc2c1=O	-4	0	-8	-1	-10	4	i	-269
O=c1[nH]c2ccccc2cc1-c1nnn(-c2ccccc2)n1	-5	3	.	-12	-15	.	i	-5
O=C(COC(=O)c1ccc(-c2ccc([N+](=O)[O-])cc2)o1)NC(=O)NC12CC3CC(CC(C3)C1)C2	-2	-1	-1	-3	.	-4	i	-16
O=[N+]([O-])c1ccccc1/C=N/N1CCN(c2ccccn2)CC1	3	-8	-2	2	22	-7	i	-111
CCN(CC(=O)NC(C)C)C(=O)[C@@H](NC(=O)c1ccco1)C(C)C	-5	-1	-5	-9	.	1	i	-4
COc1cc(C(=O)Nc2ccc(NC(=O)C3CCCCC3)nc2)cc(OC)c1OC	1	3	1	.	-6	-19	i	14
Cc1cc(C)cc(NC(=O)CSc2cc(C(=O)c3nccn3C)c3ccccc3n2)c1	-8	-15	-5	9	.	-5	i	18
Cc1ccc(CN(C)C(=O)C2CCN(C(=O)Nc3ccccc3)CC2)o1	1	3	.	.	-14	.	.	-21
COc1cccc(N2CCN(C(=O)CCS(=O)(=O)c3ccc4c(c3)oc(=O)n4C)CC2)c1	-5	1	11	3	-11	8	i	-7
COc1ccccc1C(=O)OCCCN=C1NS(=O)(=O)c2ccccc21	1	5	4	.	.	-2	i	-3
O=C(Nc1ccnn1C1CCN(C(=O)c2ccc(Cl)c(F)c2)CC1)C1CCOC1 (stereo unspecified)	-3	-1	0	-15	-7	5	i	5
Cc1ccc(S(N)(=O)=O)cc1	1	8	.	-2	-13	.	.	.

Gathered by group, the entries above containing a CF3 group.
SMILES	MT1-MMP act inh	MT1-MMP act inh RFP	PABP polyA inh	CSC inhib	UUG fidelity	eIF4H FP inh	Rce1 inhib	Env fusion inh	others
CCOC(=O)c1sc(NC(NC(=O)c2ccco2)(C(=O)OC)C(F)(F)F)nc1C (stereo unspecified)	0	2	4	-8	2	-4	i	.
O=c1nc(/C=C/c2ccc(-c3ccc(F)cc3)o2)cc(C(F)(F)F)[nH]1	.	.	121*	33	.	127	i	.	eIF4H FP inh retest=11;PABP polyA inh retest=66*
Cc1cc(C(F)(F)F)nn1CC(=O)Nc1cccnc1	7	2	-1	-10	-7	3	i	.

Screening data: PubChem BioAssay, several laboratories
